# Screening results deposited in PubChem BioAssay by several laboratories.
# T cruzi inh – inhibitors of intracellular T. cruzi growth, primary screen, luminescence, NIH3T3 host cells; T. cruzi beta-gal in NIH3T3, 90 h; inhibition, % (concentration not given with the values); hit rate 1.4% among 300,000;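 active = mean inhibition across valid replicates above about 55%, limit read from the data; inconclusive = mean below that limit but half or more replicates reach it; inactive = mean below it, under half of replicates reach it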;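 note: signal also drops with host cell toxicity which is not excluded here; 0% = plate median of DMSO wells and 100% = zero luminescence signal; higher percent means less beta-gal luminescence so fewer parasites; stock transfer was 50 nL into about 50 µL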
# RanGTP-Impb inh – inhibitors of RanGTP-importin-beta interaction, primary screen, biochemical, FRET, CFP-Ran, YFP-importin-beta, homogeneous. AID 2216, 2009. hit rate 1.1% among 300,000. inhibition, % (no concentration beside the values). cell-free CFP-Ran/YFP-importin-beta FRET ratio;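 active = most replicates above 15%; inconclusive = exactly half above 15%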;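 note: 0% = DMSO wells and 100% = Ran loaded with GDP instead of GTP; wells of about 40 µL received 100 nL stock; the first replicate is given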
# Vif TR-FRET – inhibitors of Vif binding to APOBEC3G peptide, primary screen, biochemical, TR-FRET, GST-Vif 1-94, biotin-A3G peptide, dose response retest (AID 1117319); inhibition, %; hits with a dose series show IC50 in µM; TR-FRET GST-Vif / biotin-A3G peptide binding; higher % means a stronger effect; test concentration not given here; strong numbers were not always called active; hit rate 0.57% among 260,000; Virion infectivity factor (Human immunodeficiency virus type 1 group M subtype B (isolate …;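 active = above the screen mean plus three standard deviations and confirmed in dose response; inconclusive = results disagree or hit not tested in dose response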;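 note: Vif residues 1-94 fused to GST binding biotinylated APOBEC3G peptide 110-148; 0% = full assay without inhibitor and 100% = GST in place of GST-Vif; retest series ran down from 100 µM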
# AF4-AF9 inh – inhibitors of AF4 peptide binding to AF9, primary screen, biochemical, AlphaScreen, biotin-AF4 peptide, FLAG-AF9, single point | Protein AF-9 (Homo sapiens), P42568 | inhibition, % at 10 µM | hit rate 0.47% among 350,000 | AID 651704, 2012;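 active = every replicate reaching a set inhibition limit, whatever the replicate mean, cut at about 25% in these data; inconclusive = mean inhibition reaches that limit but some replicates miss it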;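 note: 0% = plate neutral control median and 100% = total signal loss; the record names both 10 and 1 µM as test concentration; the first replicate is given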
# Target sequence (P42568 whole entry, looked up): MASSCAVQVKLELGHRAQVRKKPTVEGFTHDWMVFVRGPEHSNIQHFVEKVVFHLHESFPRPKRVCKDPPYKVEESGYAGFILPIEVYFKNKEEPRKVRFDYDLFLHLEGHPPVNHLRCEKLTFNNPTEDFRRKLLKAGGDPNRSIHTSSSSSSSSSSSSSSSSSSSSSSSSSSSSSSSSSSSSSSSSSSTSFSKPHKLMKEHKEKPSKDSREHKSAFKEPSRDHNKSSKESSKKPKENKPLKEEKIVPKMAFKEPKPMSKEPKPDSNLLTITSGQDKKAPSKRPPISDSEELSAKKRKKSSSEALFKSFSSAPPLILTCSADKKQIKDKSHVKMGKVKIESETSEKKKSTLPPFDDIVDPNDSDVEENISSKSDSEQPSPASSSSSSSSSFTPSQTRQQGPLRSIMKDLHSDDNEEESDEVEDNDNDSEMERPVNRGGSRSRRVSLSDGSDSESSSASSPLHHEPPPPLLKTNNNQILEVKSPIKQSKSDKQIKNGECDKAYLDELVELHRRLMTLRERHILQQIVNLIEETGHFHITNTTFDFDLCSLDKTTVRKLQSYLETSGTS
# Beta apoptosis – inhibitors of cytokine-induced beta cell apoptosis, primary screen, luminescence; INS-1E cytokine-induced death, ATP luminescence, 48 h; percent of positive-control rescue, neutral wells zero; protection from apoptosis, % (no concentration beside the values); hit rate 0.8% among 300,000; AID 435005, 2010;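 active = all replicates at 75% or more, or half of them and the mean; inconclusive = half reach 75% but not the mean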;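 note: 0% = cytokine-treated negative control wells and 100% = positive control rescue; higher means more ATP so stronger rescue from cytokine killing; wells of about 40 µL received 100 nL stock; the first replicate is given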
# Bfl-1 A1 inh – caspase 3/7 activation in MEF A1-2A-BIM cells, primary screen, A1 inhibitor project, cell-based, luminescence, HTS; Caspase-Glo 3/7 luminescence, 3 h; percent of clofoctol response, vehicle zero; AID 2462, 2010; hit rate 0.066% among 330,000; caspase activation, % (no concentration beside the values);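 active = over half of replicate activation scores above 10%, or exactly half above 10 with the replicate mean above 10; inconclusive = replicate mean below 10 yet half the replicates above 10; inactive = over half of replicates below 10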;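 note: wells of about 30 µL received 50 nL stock; many hits fall short of the cut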
# rRNA inh HTS – reduced GFP signal of wild-type E. coli, primary screen, bacterial rRNA inhibitor project, GFP/RFP fluorescence, OD600, single point; hit rate 1.6% among 350,000; GFP signal change (wild-type ribosome), % (test concentration not listed); E. coli WT GFP vs humanized-ribosome RFP mutants, 24 h; hits give low values; DMSO median 0, no signal -100;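 active = significant combined selectivity score with lowered wild-type GFP, culture density cut under 30%, mutant RFP and density less affected; inactive = any of these conditions unmet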; note: one replicate is shown; some compounds called inactive have numbers as strong as hits
# Calb FLC – C. albicans growth inhibition with fluconazole, primary screen, CaCi-2 strain, Alamar Blue fluorescence. C. albicans CaCi-2 (fluconazole-resistant clinical isolate) + fluconazole, 48 h. growth inhibition, % (no concentration beside the values). hit rate 0.57% among 300,000. AID 1979, 2009;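 active = most replicates above 75%; inconclusive = exactly half above 75%; inactive = most below 75%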;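 note: all wells also contain fluconazole at 8 µg/ml as a sub-toxic cotreatment; 0% = median of DMSO wells and 100% = median of geldanamycin control wells; wells of about 8 µL received 7.5 nL stock; the first replicate is given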
# rRNA inh HTS OD600 – second read-out of rRNA inh HTS, no call of its own (marks repeat the call); OD600 change, %; measured here: OD600 growth;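 optical density of the mix in the first replicate; 0 = DMSO median and -100 = no signal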
# rRNA inh HTS RFP – further read-out of rRNA inh HTS, marked with its call; RFP signal change, %; measured here: RFP humanized mutant strains;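 first replicate; 0 = DMSO median and -100 = no signal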
# The depositor's hits bear a star; ? = inconclusive; . = not tested or not shown; & = joins results of further samples. These rows are one share of the data; count on the stated rates, not on these rows.
cpd	Structure	T cruzi inh	RanGTP-Impb inh	Vif TR-FRET	AF4-AF9 inh	Beta apoptosis	Bfl-1 A1 inh	rRNA inh HTS	rRNA inh HTS OD600	rRNA inh HTS RFP	Calb FLC
1	COc1ccccc1NC(=O)Cc1nn(C)c(=O)c2ccccc12	-5	0.7	-1%	.	38	-1.1	.	.	.	-2
2	CC(=O)Nc1cc(O)cc(O)c1	-2	?	-10%	0.5	1	0.9	5	4	1.1	8
3	Fc1ccc(-c2nnc(Cc3nnc(-c4ccc(F)cc4)o3)o2)cc1	6	.	72%	.	-5	0.4	.	.	.	7
4	C[C@@H]1C[C@H](Nc2ccccc2)c2ccccc2N1C(=O)c1cccnc1	9	0.4	5%	-4.8	-2	-0.7	.	.	.	-1
5	C=CCNC(=O)N[C@@H](Cc1ccccc1)C(=O)OC	-12	5.9	-7%	-2.4	1	-0.9	4	4	-2.7	0
6	CCN(CC)S(=O)(=O)c1ccc(OC)c(NC(=O)COc2ccccc2[N+](=O)[O-])c1	2	3.9	-2%	-0.5	4	0.1	23	16	2.8	2
7	O=C(NCc1ccc(F)cc1)C1CCCN(S(=O)(=O)c2cccnc2)C1 (stereo unspecified)	-3	-0.7	12%	.	-2	-0.3	.	.	.	-4
8	O=C1CN(C(=O)COc2ncnc3ccccc23)c2ccccc2N1	-8	1.3	1%	.	-1	-0.2	.	.	.	0
9	CCn1c(Cc2ccccc2)nnc1SCC(=O)Nc1ccccc1	3	-1.7	-3%	.	-4	0.2	.	.	.	-10
10	O=C(CCCN1C(=O)NC2(CCCC2)C1=O)N1CCN(S(=O)(=O)c2ccccc2)CC1	.	.	-6%	0.1	0	0.1	1	5	-2.2	.
11	CCOC(=O)N1CCc2c(sc3[nH]c(=S)[nH]c(=S)c23)C1	3	-1.0	.	.	-5	-0.2	.	.	.	-3
12	CCCCn1c(N)c(N(CCOC)C(=O)c2cc3ccccc3cc2OC)c(=O)[nH]c1=O	-2	1.5	0%	-2.1	.	0.5	14	10	-1.0	4
13	COc1ccc(/C=N/O)cc1COc1ccc(NC(C)=O)cc1	6	-5.0	-4%	.	1	-0.2	.	.	.	-5
14	CCOC(=O)COc1c(OC)cc(Cl)cc1C1Nc2ccccc2C(=O)N1c1ccc(F)cc1 (stereo unspecified)	18	0.3	2%	.	-3	-0.1	.	.	.	-12
15	Cc1ccccc1OCc1nnc2n1CC(C)S2 (stereo unspecified)	-9	3.4	-1%	9.9	-6	1.7	-2	-22	-0.8	-2
16	C/C(CCc1ccco1)=N\NC(=O)CNc1c(Br)cc(Br)cc1Br	-3	-1.7	-14%	-9.7	-3	-0.1	2	-11	3.2	8
17	Cc1[nH]c2ccccc2c1SCC(=O)N1CCC(C)CC1	-3	-2.8	2%	-0.5	-5	0.2	-18	-20	-1.4	7
18	C[n+]1ccccc1/C=C/c1ccc([N+](=O)[O-])cc1	-6	-0.9	.	1.2	15	-0.6	51	14	15	-1
19	Cc1ccn2c(=O)nc(SCC(=O)NCc3ccccc3)nc2c1	-20	0.5	2%	-1.1	-6	-0.5	2	-2	1.5	-8
20	Cc1ccc(NC(=O)c2cccc(NC3=NC4CS(=O)(=O)CC4S3)c2)cc1C (stereo unspecified)	-7	0.2	.	3.3	-2	.	3	5	1.5	-3
21	O=C1c2ccccc2C(=O)N1CCCc1nc2ccccc2c(=O)n1CCCn1ccnc1	14	.	-1%	.	0	2.7	.	.	.	-17
22	CCc1ccc(CNCc2ccc(OCC(O)CN(C)Cc3ccccc3)cc2)nc1 (stereo unspecified)	29	5.7	28%	18	39	-0.2	2	0	5.5	2
23	C=CCN1C(=O)/C(=c2\sc3nc(=O)c(Cc4ccc(OC)c(OC)c4)nn3c2=O)c2ccccc21	-20	1.4	.	-1.8	5	-1.1	12	14	4.0	-3
24	O=C(c1cc(COc2c(F)cccc2F)on1)N1CCC(c2ccncc2)CC1	29	-0.1	7%	-2.5	53	0.2	-24	-21	2.3	-7
25	CCOc1ccc2nc(COC(=O)c3cccs3)c(C(=O)c3ccccc3)[n+]([O-])c2c1	1	-4.2	.	-1.9	-6	0.9	15	7	-6.5	0
26	O=C(NC1CCN(C(=O)Nc2cccc(Cl)c2)CC1)c1ccco1	-13	-1.8	-10%	4.3	6	0.3	-6	-15	-3.3	-6
27	Cc1cccc(NS(=O)(=O)c2ccc3c(c2)CCC(=O)N3)c1	2	4.8	.	-1.3&2.3	3	-0.3	-16	-12	-0.2	2
28	Clc1ccc2nc(-c3ccccc3)cn2c1	-8	3.0	-1%	-1.3	6	-11	13	30	3.1	-10
29	COc1ccc(C(=O)C2CCCN(C(=O)COc3ccc(C(C)=O)cc3)C2)cc1F (stereo unspecified)	9	-0.2	-15%	0.8	-1	-1.3	-28	-27	-1.7	-44
30	CC1CCN(c2c(NCC3CCC(C(=O)NCCC4=CCCCC4)CC3)c(=O)c2=O)CC1 (stereo unspecified)	-18	5.1	7%	-5.0	-3	-1.0	3	-6	-9.0	2
31	Cc1ccc(NC(=S)N(CCN(C)C)Cc2cccs2)cc1C	-40	2.9	-7%	4.6	-10	-0.2	3	0	-0.6	-1
32	COc1ccc(NC(=O)CS(=O)(=O)c2cn(CC(=O)N3CCCC3)c3ccccc23)c(OC)c1	3	.	-2%	1.0	-4	0.2	14	9	6.5	.
33	O=C(Nc1ccccc1)Nc1nc(-c2ccc(F)cc2)cs1	17	-0.9	-5%	2.2	11	-0.4	-54	-78	-30	-7
34	O=C1CCN(CCc2ccccc2)CCN1CCSc1ccc(Br)cc1	-5	7.5	6%	-6.5	-10	-0.6	-47	-77	-23	18
35	CCOC(=O)N1CCN(C(=O)CN(c2ccc3c(c2)OCO3)S(C)(=O)=O)CC1	-3	3.4	5%	.	-7	-0.3	.	.	.	1
36	Cc1ccc(F)cc1NC(=O)CN1CCN(c2ccccn2)CC1	-14	6.9	-11%	0.2	4	-0.4	-8	-2	-2.3	3
37	CCn1cc(-c2cc(C(=O)O)c3ccccc3n2)cn1	-3	?	5%	-4.9	10	-0.3	16	12	3.0	4
38	COc1ccccc1NC(=O)CSc1nnc(C2CCCCC2)n1N	7	5.1	-2%	-3.5	-3	-2.7	11	4	2.8	26
39	CCCC(=O)Nc1nc2c(C)c(Cl)ccc2s1	-1	-0.3	3%	-5.9	3	-0.3	-4	3	-5.2	-7
40	CCN(CCCNC(=O)CCn1c(=S)[nH]c2cc3c(cc2c1=O)OCO3)c1cccc(C)c1	32	-0.3	-4%	0.8	10	0.7	10	13	1.2	18
41	Cc1ccc(CNC(=O)C2CCC(CNc3c(N4CCC(C)CC4)c(=O)c3=O)CC2)cc1 (stereo unspecified)	8	-6.1	.	1.4	4	0.7	2	-1	-5.0	-3
42	CCC(CC)NC(=O)Nc1ccc(F)c(Cl)c1	8	7.5	.	-2.5	2	-1.4	-3	-6	1.6	-7
43	O=C(/C=C/c1cccc(Br)c1)N1CCN(c2cccc(C(F)(F)F)c2)CC1	2	-1.9	3%	.	-8	-0.2	.	.	.	4
44	Cn1ccnc1-c1ccc(-c2nccn2C)cc1	-13	5.2	.	-0.7	-12	0.0	19	12	5.5	7
45	CC/S(C)=N/S(=O)(=O)c1ccc(C)cc1 (stereo unspecified)	8	2.9	.	1.6	-4	-0.4	7	20	-0.6	-2
46	O=C(Nc1cccc(S(=O)(=O)C(F)F)c1)c1ccc(S(=O)(=O)N2CCCCC2)cc1	11	-4.8	-2%	-3.3	7	0.3	-24	-24	-1.5	-3
47	CCCOc1ccc(C2C(=O)N(C3CCCCC3)CC(=O)N2C2CC2)cc1OC (stereo unspecified)	14	1.4	1%	.	5	-0.1	.	.	.	44
48	COc1cc(S(=O)(=O)N2CCN(Cc3ccc4c(c3)OCO4)CC2)c(C)cc1C	9	1.9	11%	0.0	-1	-0.1	-7	-28	-3.0	-24
49	O=C(CN1C(=O)COc2ccccc21)N1CCCC1	-11	-0.5	1%	-0.2	-8	1.1	3	5	-2.5	9
50	O=C(NNC(=S)NC(=O)c1ccccc1[N+](=O)[O-])c1ccccc1[N+](=O)[O-]	-6	0.6	?	11	.	-0.1	-26*	8.6*	-6.4*	4

# Entries 35 through 40 of the list above:
cpd	Structure	T cruzi inh	RanGTP-Impb inh	Vif TR-FRET	AF4-AF9 inh	Beta apoptosis	Bfl-1 A1 inh	rRNA inh HTS	rRNA inh HTS OD600	rRNA inh HTS RFP	Calb FLC
35	CCOC(=O)N1CCN(C(=O)CN(c2ccc3c(c2)OCO3)S(C)(=O)=O)CC1	-3	3.4	5%	.	-7	-0.3	.	.	.	1
36	Cc1ccc(F)cc1NC(=O)CN1CCN(c2ccccn2)CC1	-14	6.9	-11%	0.2	4	-0.4	-8	-2	-2.3	3
37	CCn1cc(-c2cc(C(=O)O)c3ccccc3n2)cn1	-3	?	5%	-4.9	10	-0.3	16	12	3.0	4
38	COc1ccccc1NC(=O)CSc1nnc(C2CCCCC2)n1N	7	5.1	-2%	-3.5	-3	-2.7	11	4	2.8	26
39	CCCC(=O)Nc1nc2c(C)c(Cl)ccc2s1	-1	-0.3	3%	-5.9	3	-0.3	-4	3	-5.2	-7
40	CCN(CCCNC(=O)CCn1c(=S)[nH]c2cc3c(cc2c1=O)OCO3)c1cccc(C)c1	32	-0.3	-4%	0.8	10	0.7	10	13	1.2	18

# Following part:
cpd	Structure	T cruzi inh	RanGTP-Impb inh	Vif TR-FRET	AF4-AF9 inh	Beta apoptosis	Bfl-1 A1 inh	rRNA inh HTS	rRNA inh HTS OD600	rRNA inh HTS RFP	Calb FLC
51	CC1(C)SC(=S)N(NC(=O)Nc2cccc3ccccc23)C1N(O)C(=O)Nc1ccccc1 (stereo unspecified)	36	-0.6	.	?	17	-0.1	12	6	3.1	3
52	O=C(N/N=C/c1cc(Br)ccc1O)c1ccncc1	21	1.4	12%	?	53	-0.5	-33	-28	-6.8	-18
53	CC1=NN(c2ccccc2)C(=O)/C1=C/C=C/c1ccc(N(C)C)cc1	6	9.8	.	67*	.	.	3	6	3.2	-14
54	COc1ccc(N2CCN(c3n[nH]c(N)n3)CC2)cc1	2	-3.4	-1%	-0.6	.	0.3	9	20	2.0	8
55	COc1ccc(C(=O)N2CC3(CC(c4cccc([N+](=O)[O-])c4)=NO3)C[C@H]2C(=O)NCC(N)=O)cc1 (stereo partly specified)	-10	-0.8	1%	2.5	0	0.3	2	3	-6.3	-9
